# Screening data: PubChem, several laboratories
# YopH inh: blocks Yersinia enterocolitica YopH tyrosine phosphatase; inhibition, %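 (about 10 µM by stock and volumes)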; 0.16% of 140,000 active; fluorescence Ex485/Em525;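 active means inhibition of 50% or more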;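 further: controls were vehicle for no effect and minimum signal wells for full effect; inactives centre near -20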
# RecA splice inh: inhibitors of M. tuberculosis RecA intein splicing; P9WHJ3; cell-free RecA intein splicing, fluorescence; inhibition, %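 (about 9 µM by stock and volumes)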; 0.75% of 290,000 active; in the data active means inhibition above about 30%; inconclusive means no clear call, values can overlap the other calls;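 further: 0% = vehicle wells and 100% = reference inhibitor control wells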
# Target sequence (P9WHJ3 whole entry, looked up, canonical isoform): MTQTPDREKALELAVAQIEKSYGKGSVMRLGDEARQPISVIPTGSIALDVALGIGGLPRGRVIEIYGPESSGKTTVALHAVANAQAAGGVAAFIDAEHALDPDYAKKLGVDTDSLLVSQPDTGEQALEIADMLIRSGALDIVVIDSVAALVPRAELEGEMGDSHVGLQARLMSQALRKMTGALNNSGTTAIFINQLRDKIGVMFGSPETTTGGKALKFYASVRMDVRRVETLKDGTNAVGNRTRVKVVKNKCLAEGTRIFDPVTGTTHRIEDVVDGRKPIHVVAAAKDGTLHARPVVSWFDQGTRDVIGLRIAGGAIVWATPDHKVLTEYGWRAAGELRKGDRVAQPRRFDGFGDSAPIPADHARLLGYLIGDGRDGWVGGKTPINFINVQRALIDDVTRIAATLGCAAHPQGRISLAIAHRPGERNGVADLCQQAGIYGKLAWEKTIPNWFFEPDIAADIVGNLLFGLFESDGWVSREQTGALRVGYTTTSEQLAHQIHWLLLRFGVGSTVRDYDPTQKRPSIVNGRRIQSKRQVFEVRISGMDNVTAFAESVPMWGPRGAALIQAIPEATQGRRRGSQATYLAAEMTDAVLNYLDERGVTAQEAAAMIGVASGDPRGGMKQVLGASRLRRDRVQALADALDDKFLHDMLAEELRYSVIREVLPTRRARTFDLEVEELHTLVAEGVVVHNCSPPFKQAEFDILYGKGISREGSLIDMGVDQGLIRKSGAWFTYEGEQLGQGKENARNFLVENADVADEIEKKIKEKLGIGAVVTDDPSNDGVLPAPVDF
# Mtb bLac sens: beta-lactam sensitization of Mtb H37Rv. 0.27% of 330,000 active. inhibition, % at 25 µM. M. tuberculosis H37Rv growth with meropenem, percent inhibition; hits of this screen are not shown here;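 active means about 74% or more and at least 40 points above the plate without the antibiotic, then above 30% in a dose series; inconclusive means first-round hits that could not be retested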;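 further: growth measured after seven days incubation then overnight dye step; 0% = bacteria only wells and 100% = bacteria with antibiotic; twin plates without the antibiotic show which effects depend on it; some results filed as inactive read as strong as hits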
# Mtb H37Rv: M. tuberculosis H37Rv growth inhibitors, H37Rv strain (AID 1626). one-dose inhibition, % at 10 µM; IC50 in µM for titrated hits. M. tuberculosis H37Rv growth inhibition; higher % means a stronger effect. 0.95% of 220,000 active;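 active means confirmed in a dose series; inconclusive means inhibition above 80% but not taken into the dose series; inactive means below 80% or under 30% at every dose of the series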;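 further: bacteria incubated seven days before Alamar blue readout; 0% = bacteria only wells and 100% = bacteria with antibiotic wells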
# Arbovirus inh: arbovirus infection inhibition | arbovirus infection cell-based antiviral screen | inhibition, % at 10 µM | 0.37% of 200,000 active;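 active means inhibition from about 30%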;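 further: bluetongue infection of BSR cells; cell survival read as ATP light after 72 h; 0% = infected wells without compound and 100% = uninfected wells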
# Arbovirus inh repeat: also measured in Arbovirus inh; calls as there; inhibition, %; measured here: 10K subset replicate screen; many hits read low in the repeat;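 first of two repeat runs on a subset; 0% = infected and 100% = uninfected wells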
# * marks the source's active call; other numbers are inactive results; u = inconclusive; x = no result given. These rows are one share of the data. The share of hits here may be higher or lower than overall.
SMILES,YopH inh,RecA splice inh,Mtb bLac sens,Mtb H37Rv,Arbovirus inh,others
COc1ccc(CCNCc2ccc(OCc3ccccc3)cc2)cc1,x,2.8,36,x,x,
N#Cc1c(-c2ccccc2)c(-c2ccccc2)n[nH]c1=O,x,-1.4,-10,x,x,
COc1ccc(NC(=O)C2CCCN2S(=O)(=O)c2ccc3c(c2)CCC(=O)N3)cc1Cl (stereo unspecified),-35,x,-6,-7%,7,Arbovirus inh repeat=-3
CC(C)OC(=O)CSc1nnc(Cc2ccccc2)n1Cc1ccco1,-24,1.4,u,-8%,-1,
COc1ccccc1C(O)P(=O)(OCC(C)C)c1ccc(N(C)C)cc1 (stereo unspecified),x,-23,8,x,x,
O=C(OCC(=O)N1CCN(C(=O)c2ccco2)CC1)c1cc(S(=O)(=O)Nc2ccc(Cl)cc2)ccc1O,x,2.3,-1,-10%,10,
COCCn1c(SCC(=O)Nc2ccccc2OC)nc2ccccc21,x,1.5,-4,7%,2,
Cc1ccc(C23CC4CC(CC(C(=O)NCC(=O)O)(C4)C2)C3)cc1,x,-0.1,-9,x,x,
Cc1cc(=O)[nH]c(SCc2nc3ccccc3c(=O)n2-c2ccccc2C)n1,x,-0.4,5,4%,8,
CCOC(=O)c1oc2ccc(S(=O)(=O)n3nc(-c4ccc(C)cc4)cc3N)cc2c1C,-35,0.8,-3,2%,-14,
CC1CC1C(=O)OCC(=O)Nc1ccc2[nH]c(=O)[nH]c2c1 (stereo unspecified),x,x,2,-6%,2,
O=C1NC2(CCc3ccccc3C2)C(=O)N1CCOc1cccc(Cl)c1 (stereo unspecified),-19,-0.5,1,6%,-1,
O=C(O)CSCC(=O)Nc1cccc(C(F)(F)F)c1,-24,-2.1,1,-9%,4,
O=C1CC(SCc2nc3ccccc3[nH]2)C(=O)N1c1ccc(F)c(Cl)c1 (stereo unspecified),20,6.6,-14,-3%,-2,
NC(=O)c1ccsc1NC(=O)c1ccc2c(c1)CCCC2,-36,-0.4,11,9%,-11,
CCOC(=O)c1ccc(NC(=O)N(CC)CC)cc1,-6,-2.9,16,-2%,0,Arbovirus inh repeat=-4
COC(=O)c1[nH]nc(-c2ccccc2)c1-c1ccccc1,x,0.2,0,x,x,
Cc1ccc(-n2c(SCC3CNC(=O)O3)nnc2-c2ccccc2)cc1C (stereo unspecified),-37,1.2,1,-1%,-3,
CC(=O)N1CCN(C(=O)CCc2cc(C(C)(C)C)c(O)c(C(C)(C)C)c2)CC1,x,-1.9,-4,x,x,
Cc1cc(NC(=O)CSc2nnc(NC(=O)C3CC(=O)N(c4ccccc4C)C3)s2)no1 (stereo unspecified),-26,-0.2,-2,-6%,4,
CCCn1c(C(CO)Nc2nc(-c3cccc(Br)c3)cs2)nc2ccccc21 (stereo unspecified),x,18,37,x,x,
Cc1ccc2oc(=O)c3cc(C(=O)NCCCN4CCCCCC4)sc3c2c1,x,-2.3,7,x,x,
CCn1c(C)c(P(c2ccccc2)c2ccccc2)[n+]2ccccc12,x,-1.4,-2,5%,28,
COc1ccc(NC(=O)CN(C)C(=O)c2cc(-c3ccc(C)o3)nc3ccccc23)cc1,x,-29,6,x,x,
CCNC(=O)COc1ccc(-c2ccccc2)cc1,-65,-2.0,-9,6%,-9,
Cc1ccc(S(=O)(=O)NC(CC(=O)N2CCOCC2)c2ccco2)cc1 (stereo unspecified),-58,2.1,4,-3%,11,
Cc1ccc(S(=O)(=O)N2CCN(CC(=O)N/N=C/c3cc([N+](=O)[O-])ccc3Cl)CC2)cc1,-40,1.2,4,-5%,0,
OC(COc1ccc(Br)cc1)CN1CCCC1 (stereo unspecified),x,-0.2,0,x,x,
O=C1CCCc2oc3ccc(NS(=O)(=O)c4cccc5cccnc45)cc3c21,x,-1.0,-7,1%,9,
COc1ccc(N2CCN(S(=O)(=O)c3ccc(-c4cnc(C5CC5)o4)cc3)CC2)cc1,x,-0.2,6,x,x,
O=C1Nc2c(Br)cc(Br)c3cccc1c23,x,-18,4,0%,6,
c1cnc(-c2nnc3n2CCCCC3)cn1,-27,0.5,9,-8%,1,
Cc1cc(Cl)c2oc(C(=O)N(C)C3CCOC3)c(C)c2c1 (stereo unspecified),x,-2.2,-5,x,x,
COc1cccc(NCc2ccc([N+](=O)[O-])s2)c1,6,1.7,8,15%,-3,
Cc1nc2c(C(=O)NCCC(C)C)c[nH]n2c(=O)c1Cc1ccccc1F,-13,5.4,0,-2%,-8,
O=c1cc(C(F)(F)F)nc(SCc2cccc3ccccc23)[nH]1,x,5.1,u,x,x,
O=C(O)COCc1nc2ccccc2s1,x,-12,5,0%,x,
COc1cc(/C=N/Nc2nc(N3CCCCC3)nc(N3CCCCC3)n2)ccc1OC(=O)c1ccco1,x,0.0,-4,-2%,-3,
COc1ccccc1C(=O)NCCC(=O)N1CCCC(C)C1 (stereo unspecified),x,-1.5,-19,x,x,
COc1cc(/C=C(\C#N)C(N)=O)ccc1OCc1c(C)no[n+]1[O-],x,1.1,-2,-6%,x,
COc1ccc(-c2nnc(SCC#CCO)o2)cc1OC,-2,1.2,1,-9%,3,
CCOC(CNC(=O)C1CCN(S(=O)(=O)c2ccc3nc4c(c(C(=O)O)c3c2)CC(C)CC4)CC1)OCC (stereo unspecified),x,-1.5,1,x,x,
CCOC(=O)CSc1nnc(CNC(=O)c2ccc(OC)cc2OC)n1C,-2,-1.3,-1,-5%,-3,
COc1ccc(C)cc1S(=O)(=O)N(CC(=O)N1CCOCC1)Cc1ccccc1,-46,1.1,5,-6%,-2,
CCOC(=O)C1(Cc2cccc(F)c2)CCN(CC(O)CO)CC1 (stereo unspecified),x,-1.1,-10,-5%,x,
Cc1ccc(S(=O)(=O)c2nc(-c3ccccc3Cl)oc2NCCCN2CCOCC2)cc1,x,0.1,36,x,x,
CCOc1ccc(N(C(=O)c2cnccn2)C(C(=O)NC2CCCCC2)c2ccc(O)cc2)cc1 (stereo unspecified),x,-0.6,-3,-6%,13,
O=C(NCc1ccccn1)c1c(O)c2cccc3c2n(c1=O)CC3,-13,-0.7,29,-7%,22,
CCOC(=O)C1CCN(C(=O)C2CCN(S(=O)(=O)c3ccc4ccccc4c3)CC2)CC1,x,1.5,-3,x,x,
Cc1ccc(C(=O)NC(=S)Nc2ccc(S(=O)(=O)N(C)c3ccccc3)cc2)cc1,-4,-1.1,7,5%,2,
Cc1c(CC(=O)NCC(=O)O)c(=O)oc2cc3oc4c(c3cc12)CCCC4,x,0.3,10,x,x,
Cc1ccc(N2CCN(CCCN3C(=O)C4CCCN4C3=O)CC2)cc1 (stereo unspecified),-26,12,-1,-3%,-1,
CCOC(=O)/C=c1\s/c(=C\c2ccc(C)cc2)c(=O)n1CC(=O)NCc1ccco1,-15,-7.9,7,0%,-16,
COc1ccc(Cc2nnc(SCC(=O)Nc3cc(Cl)ccc3OC)[nH]c2=O)cc1,x,-0.7,-2,x,x,
O=c1c2sc3nc(N4CCOCC4)c4c(c3c2nnn1Cc1ccccc1)CCCC4,-42,6.7,-6,21%,-6,
O=C(c1ccc(CS(=O)(=O)c2ccccc2)o1)N1CCN(c2ccccc2)CC1,x,0.1,4,x,x,
CN(C)S(=O)(=O)c1cccc(-n2sc3ccccc3c2=O)c1,x,x,1,2%,-9,
CC(=O)Nc1ccc(N=NC2C(=O)N(C(N)=S)N=C2C)cc1 (stereo unspecified),x,21,0,x,x,
O=C(O)c1cccc(-c2nc3ccccc3[nH]2)c1,-22,-3.4,-6,-2%,-3,
COc1cccc2c(=O)c(C(=O)NCc3cccs3)c[nH]c12,-4,-3.4,4,-6%,-18,

# New compounds follow.
SMILES,YopH inh,RecA splice inh,Mtb bLac sens,Mtb H37Rv,Arbovirus inh,others
CCCNC(=O)CCn1nc(-c2ccc(Cl)cc2)c2ccccc2c1=O,x,1.3,1,2%,x,
CCc1cccc(NS(=O)(=O)c2c(C)nc3scc(C)n3c2=O)c1,x,0.5,1,x,x,
COc1ccc(-n2cnnc2SCC(=O)Nc2ccc(N3CCOCC3)cc2)cc1,-12,-0.8,-6,-7%,6,
Cc1ccc(Nc2cnn(C34CC5CC(CC(CC(=O)O)(C5)C3)C4)c(=O)c2Cl)cc1,-29,-2.0,2,-3%,10,
N#Cc1c(N2CCN(c3ccc(F)cc3)CC2)nc(N)c2c(N)nc3c(c12)CC(=O)N3C1CC1,x,x,x,1%,-7,
CCOC(CNc1cc(C)nc2c(-c3ccccc3OC)c(C)nn12)OCC,x,2.3,4,x,x,
Nc1ccc(CCC(=O)N2CCCC2)cc1,x,2.1,-5,x,x,
CCN1CCc2c(sc(NC(=O)c3ccc(S(=O)(=O)N(CC)c4ccccc4)cc3)c2C(N)=O)C1,x,-3.6,3,x,x,
CCOC(=O)Cc1csc(CC(N)=O)n1,x,-1.9,1,-5%,x,
CCN(CC)CCCN(C(=O)c1cccc(C)c1)c1nc(-c2ccc(OC)cc2)cs1,x,3.8,46,x,x,
CC12CCC(C(=O)N3CCCCCC3)(OC1=O)C2(C)C (stereo unspecified),4,1.1,-7,1%,4,
CCCCCC(=O)Nc1cccc(C2=NOC3(C2)C[C@H](C(N)=O)N(C(=O)CC#N)C3)c1 (stereo partly specified),x,1.9,x,-9%,x,
CC1=C(C#N)S(=O)(=O)C(C#N)C(c2ccccc2)C1 (stereo unspecified),x,-4.2,-5,-11%,x,
CCOC(=O)CSc1nc(=O)n2cccc(C)c2n1,x,-1.1,-3,1%,14,
CCCCNC(=O)C1CCN(S(=O)(=O)c2ccc3c(c2)CC(C)N3C(=O)C2CC2)CC1 (stereo unspecified),x,-0.2,-2,x,x,
COc1ccccc1C(=O)NC(CCSC)C(=O)NCC(c1cccs1)N1CCOCC1 (stereo unspecified),x,0.8,-7,x,x,
COc1cc(OC)c(S(=O)(=O)Nc2ccccc2N2CCOCC2)cc1NC(C)=O,x,-1.5,14,5%,1,
O=C(COc1ncnc2c(Cl)cc(Cl)cc12)Nc1cc([N+](=O)[O-])ccc1Cl,-23,-0.4,9,1%,-1,
Cc1ccccc1OCCCCCCN1CCNCC1,x,2.5,-7,x,x,
CC(NC(=O)c1cccc(OC2CCN(C3CCN(C)CC3)CC2)c1)c1ccccc1 (stereo unspecified),x,-3.7,1,x,x,

# By substructure, the entries above with a cyano group.
SMILES,YopH inh,RecA splice inh,Mtb bLac sens,Mtb H37Rv,Arbovirus inh,others
N#Cc1c(-c2ccccc2)c(-c2ccccc2)n[nH]c1=O,x,-1.4,-10,x,x,
COc1cc(/C=C(\C#N)C(N)=O)ccc1OCc1c(C)no[n+]1[O-],x,1.1,-2,-6%,x,
N#Cc1c(N2CCN(c3ccc(F)cc3)CC2)nc(N)c2c(N)nc3c(c12)CC(=O)N3C1CC1,x,x,x,1%,-7,
CCCCCC(=O)Nc1cccc(C2=NOC3(C2)C[C@H](C(N)=O)N(C(=O)CC#N)C3)c1 (stereo partly specified),x,1.9,x,-9%,x,
CC1=C(C#N)S(=O)(=O)C(C#N)C(c2ccccc2)C1 (stereo unspecified),x,-4.2,-5,-11%,x,

# Going on with the list.
SMILES,YopH inh,RecA splice inh,Mtb bLac sens,Mtb H37Rv,Arbovirus inh,others
O=C(CSc1nnc(-c2ccc(O)cc2)n1Cc1ccco1)N1CCc2ccccc2C1,-35,0.5,3,13%,-9,
CCCCn1c(O)c(C(C)=NCc2ccco2)c(=O)[nH]c1=O,x,1.0,-8,16%,x,
O=C(NCCCN1CCN(Cc2ccccc2)CC1)C1CCN(S(=O)(=O)N2CCCC2)CC1,-50,2.2,-3,-18%,4,
CC(C)NC(=O)c1ccc2c(=O)n(Cc3ccco3)c(=S)[nH]c2c1,-24,-0.2,1,-9%,8,
COC(=O)c1ccc(CSc2nc(C)nc3c2c(=O)n(C)c(=O)n3C)o1,-46,-0.9,1,-8%,4,
C=CCn1c(CCCOc2ccc(Cl)cc2Cl)n[nH]c1=S,-27,3.0,-4,15%,-9,
CC(=O)Nc1ccc(S(=O)(=O)NNC(=S)NCc2ccco2)cc1,x,1.7,1,x,x,
CN(C(=O)CCc1ccccc1F)C1CCCN(Cc2ccccc2F)C1 (stereo unspecified),x,-0.8,-4,x,x,
Cc1nonc1CN(C)C(=O)c1cc(COc2ccc(F)cc2Cl)on1,x,5.4,-6,x,x,
O=C(Nc1cccc(-n2cnnn2)c1)c1cc2ccccc2o1,x,10,2,x,x,
CC(=O)c1ccc(-c2ccccc2[C@H]2[C@H]3C=CC[C@@H](C)[C@@H]3C(=O)N2Cc2ccccc2)cc1,x,29,x,11%,x,
C/C(CC(=O)Nc1ccc(N(C)C)cc1)=N\NC(=O)c1ccc(Cl)cc1,x,-8.3,7,x,x,
COc1cc(NC(=O)Cc2nn(C)c(=O)c3ccccc23)cc(OC)c1,-17,-0.6,-2,8%,3,
CC(C)Oc1ccc(C2NC(=O)c3ccccc3O2)cc1 (stereo unspecified),x,-1.8,-6,x,x,
Cc1csc(N2CCCC2=O)n1,x,-2.3,-2,-5%,14,
